Compound activity (PubChem)
VCAM-1 up = enhancers of VCAM-1 display on endothelial cells, cell-based, plate reader, pooled HUVEC, TNFa stimulus (AID 455); HUVEC TNFa-induced VCAM-1 immunofluorescence, plate reader; numbers were filed only for top-ranked candidate wells; augmentation, % at 5 µM; 10,000 compounds, 0.2% hits;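 active means a compound raising TNF-alpha-driven VCAM-1 surface staining, with its hit status upheld on visual or statistical review; inactive means the rest, including hits rejected on review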;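 further: 0% = TNFa with vehicle and 100% = strongest image-checked hit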
Proteasome disasm = blocks ATP-dependent breakdown of the yeast 26S proteasome. anti-FLAG beads, GFP-proteasome disassembly, flow cytometry. inhibition of disassembly, % (concentration not given with the values). 24,000 compounds, 0.2% hits;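 active means above 40%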;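 further: plate controls were ATP control with full disassembly for no effect and ATP-gamma-S intact proteasomes for full effect; higher percent means more bead fluorescence retained so stronger block of disassembly; stock transfer was 100 nL into about 10 µL; wells with too few beads may also be inconclusive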
* = called active by the depositor. Not all compounds are listed; rates above refer to the full screens.

CSCCC(NC(=O)C1CCC(C)CC1)C(=O)NCCN1CCOCC1 (stereo not given) was read as Proteasome disasm -1.3.
`CNc1csc(C)c(C)c1=O` gave Proteasome disasm -0.3.
Screening CN(C(=O)c1ccc2c(=O)n3c(nc2c1)CCCCC3)c1ccccc1 returned VCAM-1 up inactive and Proteasome disasm 0.8.
`CC(=O)NCC(=O)N(c1ccccc1)C1(C(=O)NC2CCCCC2)CCCCC1` gave Proteasome disasm 0.6.
For O=C(Nc1ccc2c(c1)OCCO2)c1cnc2ccccn2c1=O the results were Proteasome disasm 0.7.
`COc1cccc(Cn2nnc3c(=O)[nH]c(C4CCCN(C(=O)c5ccccc5Cl)C4)nc32)c1` (stereo not given) gave Proteasome disasm 0.2.
For CC(=O)c1cccc(NC(=O)c2ccc(NS(C)(=O)=O)cc2)c1 the results were VCAM-1 up inactive and Proteasome disasm 0.6.
For COc1ccc(NC(=O)CSc2nc3c(c(=O)[nH]2)CCC3)cc1OC the results were Proteasome disasm -0.6.
For CCc1ccc(-c2nc(CN3CCCC(C(=O)NCCc4ccc(OC)c(OC)c4)C3)c(C)o2)cc1 (stereo not given) the results were Proteasome disasm 1.1.
`Cc1cccc(NC(=O)C2CCCN(C(=O)Nc3ccccc3)C2)c1C` (stereo not given) gave VCAM-1 up inactive and Proteasome disasm -0.3.
For CCCCNC(=O)C1c2cc(OC)c(OC)cc2C(=O)N(C)C1c1ccc(OC)cc1 (stereo not given) the results were Proteasome disasm 0.5.
O=C(CCCn1c(SCC(=O)c2ccc(Cl)cc2)nc2ccccc2c1=O)NCc1ccco1 was read as Proteasome disasm -1.1.
Screening C=C(C)Cn1c(C(C)NC(=O)CCC)nc2ccccc21 (stereo not given) returned Proteasome disasm -0.3.
CCOC(=O)N1CCN(C(=O)CSc2nnc(Cc3cccn3C)n2CCc2ccccc2)CC1 was read as Proteasome disasm -0.4.
Screening CC(=O)Nc1ccc(S(=O)(=O)NCc2cn3c(C)csc3n2)cc1 returned VCAM-1 up inactive and Proteasome disasm 0.4.
For COc1cc2c(C(=O)NC3CCCCCC3)cn(C)c(=O)c2cc1OC the results were Proteasome disasm 1.3.
For Cc1nc2ncnn2c(C)c1CCC(=O)N1CCN(c2ccccn2)CC1 the results were Proteasome disasm 0.5.
For COc1ccccc1Cn1nnc2c(=O)[nH]c(C3CCN(C(=O)c4ccc(F)cc4)CC3)nc21 the results were Proteasome disasm -0.5.
Screening Clc1cccc(Cl)c1COc1ccncc1 returned VCAM-1 up inactive and Proteasome disasm -0.5.
Screening O=c1cc(-c2ccccc2)[nH]c2ccccc12 returned Proteasome disasm -2.2.
`O=C(NCC1CCCO1)C1CCC(CNS(=O)(=O)c2ccccc2)CC1` (stereo not given) gave VCAM-1 up inactive and Proteasome disasm -1.1.
For O=c1c2cc3c(cc2[nH]c(=S)n1Cc1ccco1)OCO3 the results were Proteasome disasm 0.0.
`COc1ccc(CNc2ccc(C(=O)O)cc2)cc1` gave VCAM-1 up inactive and Proteasome disasm -0.6.
Screening COc1cccc(Cn2nnc(C(=O)Nc3ccc(C)cc3)c2N)c1 returned Proteasome disasm -0.5.

Entries from the list above that contain a Cl atom, in the order listed:
`COc1cccc(Cn2nnc3c(=O)[nH]c(C4CCCN(C(=O)c5ccccc5Cl)C4)nc32)c1` (stereo not given) gave Proteasome disasm 0.2.
O=C(CCCn1c(SCC(=O)c2ccc(Cl)cc2)nc2ccccc2c1=O)NCc1ccco1 was read as Proteasome disasm -1.1.
Screening Clc1cccc(Cl)c1COc1ccncc1 returned VCAM-1 up inactive and Proteasome disasm -0.5.

The listing picks up with the seven entries that preceded the break.
For COc1ccccc1Cn1nnc2c(=O)[nH]c(C3CCN(C(=O)c4ccc(F)cc4)CC3)nc21 the results were Proteasome disasm -0.5.
Screening Clc1cccc(Cl)c1COc1ccncc1 returned VCAM-1 up inactive and Proteasome disasm -0.5.
Screening O=c1cc(-c2ccccc2)[nH]c2ccccc12 returned Proteasome disasm -2.2.
`O=C(NCC1CCCO1)C1CCC(CNS(=O)(=O)c2ccccc2)CC1` (stereo not given) gave VCAM-1 up inactive and Proteasome disasm -1.1.
For O=c1c2cc3c(cc2[nH]c(=S)n1Cc1ccco1)OCO3 the results were Proteasome disasm 0.0.
`COc1ccc(CNc2ccc(C(=O)O)cc2)cc1` gave VCAM-1 up inactive and Proteasome disasm -0.6.
Screening COc1cccc(Cn2nnc(C(=O)Nc3ccc(C)cc3)c2N)c1 returned Proteasome disasm -0.5.
`COC(=O)c1oc2ccc(Br)cc2c1NC(=O)CCCN1C(=O)c2ccccc2C1=O` gave Proteasome disasm -0.9.
`c1ccc(COc2nsnc2N2CCOCC2)cc1` gave Proteasome disasm 0.1.
COc1cc(C2=NOC(C(=O)N3CCCCCC3)C2)cc(OC)c1OC (stereo not given) was read as Proteasome disasm -0.5.
Screening COC(=O)C1Cc2c([nH]c3ccccc23)CN1 (stereo not given) returned Proteasome disasm 2.5.
COc1ccc(OC)c(S(=O)(=O)Nc2ccccc2C(=O)O)c1 was read as VCAM-1 up inactive and Proteasome disasm 0.8.
For Cc1nnc(SCC(=O)N(C(C)C)C(C)C)nc1C the results were VCAM-1 up inactive and Proteasome disasm 0.8.
Screening CCC1c2ccc(C)n2CCN1C(=O)Nc1cc(Cl)ccc1OC (stereo not given) returned Proteasome disasm -0.4.
Cc1nnc(NC(=O)CSc2cn(CCNC(=O)c3ccccc3)c3ccccc23)s1 was read as VCAM-1 up inactive and Proteasome disasm 1.2.
Screening CSC1=NCCN1C(=O)COc1ccc2ccccc2c1 returned Proteasome disasm -0.1.
Screening COCCNC(=O)CS(=O)(=O)Cc1nc(-c2ccc(C)cc2)oc1C returned Proteasome disasm 0.1.
Screening CCOc1ccc2nc(N3CCC(C(=O)Nc4nnc(CC)s4)CC3)sc2c1 returned Proteasome disasm -0.9.
For COc1cc2c(C(=O)NCCCN3CCN(c4cccc(Cl)c4)CC3)cn(C)c(=O)c2cc1OC the results were Proteasome disasm 1.3.
N#Cc1nc(-c2ccccc2F)oc1NCCN1CCOCC1 was read as Proteasome disasm 2.6.
Screening CCOCCCNC(=O)C(NC(=O)c1ccc(=O)[nH]c1)c1ccccc1 (stereo not given) returned Proteasome disasm -1.0.
Screening COc1ccc(-c2noc(CCC(=O)Nc3nc4ccccc4s3)n2)cc1 returned VCAM-1 up inactive and Proteasome disasm 0.1.
For Cc1ccc(CNC(=O)C2CCN(S(=O)(=O)N3CCOCC3)CC2)cc1 the results were Proteasome disasm 1.9.
CCOc1ccc(NCc2nnc(SCC(=O)Nc3cc(C)on3)n2-c2ccccc2OC)cc1 was read as VCAM-1 up inactive and Proteasome disasm 0.3.
Screening Cc1ccc(-c2c(C(=O)N3CCOCC3)oc(=O)c3ccccc23)cc1 returned Proteasome disasm 1.8.
Screening O=C1Nc2ccccc2OC1CC(=O)N1CCOCC1 (stereo not given) returned Proteasome disasm 0.0.
Cc1ccc2nc(NC(=O)CSc3nc4c(c(=O)n3C)SC(C)C4)sc2c1 (stereo not given) was read as Proteasome disasm -3.2.
Screening CCc1ccc(NC(=O)CCNS(=O)(=O)c2cccc3nonc23)cc1 returned Proteasome disasm 1.0.
`CCOc1ccccc1NC(=O)C1Cc2ccccc2CN1S(C)(=O)=O` (stereo not given) gave Proteasome disasm 2.0.
Cc1ccc(C)c(NC(=O)CCn2nc(C)cc2C)c1 was read as Proteasome disasm -1.1.
Screening CCOC(=O)N1CCC(NC(=O)c2cc3c(C)nc4ccccc4c3o2)CC1 returned Proteasome disasm 0.5.
Screening Cc1cccc(N2CCN(S(=O)(=O)c3cnc[nH]3)CC2)c1C returned Proteasome disasm -1.7.
Screening CCn1c(SCc2nc(-c3ccccc3)no2)nc2ccccc21 returned Proteasome disasm 7.0.
`O=C(Cn1cc2c(n1)CCCCC2)N1CCc2ccccc21` gave VCAM-1 up inactive and Proteasome disasm -0.8.
`Cc1ccc(S(=O)(=O)N2C3C=CC(C3)C2C(=O)O)cc1` (stereo not given) gave Proteasome disasm 2.1.
Screening CCCNC(=O)c1noc2c1CCc1ccccc1-2 returned Proteasome disasm -0.4.
For Cc1ccc(OCCN2C(=O)OC(C)(C)C2(C)O)cc1 (stereo not given) the results were Proteasome disasm -0.3.
For O=C(CNCCC1=CCCCC1)Nc1ccccc1N1CCCCC1 the results were VCAM-1 up inactive and Proteasome disasm -1.1.
Screening Cc1ccc(OCC(O)Cn2c(=N)n(CCN3CCCCC3)c3ccccc32)cc1 (stereo not given) returned VCAM-1 up inactive and Proteasome disasm 0.6.
`O=C(CN1CCN(Cc2ccccc2Cl)C1=O)NC1CCCCCC1` gave Proteasome disasm 1.2.
Screening CCOc1ccccc1CNC(=O)C1CCCN(c2nc3ccccc3o2)C1 (stereo not given) returned Proteasome disasm 0.1.
Cc1nc2ccccc2cc1O was read as VCAM-1 up inactive and Proteasome disasm 1.0.
`CC(=O)OCC(=O)[C@H]1CC[C@H]2[C@@H]3CC=C4C[C@@H](O)CC[C@]4(C)[C@H]3CC[C@]12C` gave VCAM-1 up inactive and Proteasome disasm -0.9.

Pulled by compound from the entries so far:
Screening CCCNC(=O)c1noc2c1CCc1ccccc1-2 returned Proteasome disasm -0.4.
Screening Cc1ccc(OCC(O)Cn2c(=N)n(CCN3CCCCC3)c3ccccc32)cc1 (stereo not given) returned VCAM-1 up inactive and Proteasome disasm 0.6.
For CCc1ccc(-c2nc(CN3CCCC(C(=O)NCCc4ccc(OC)c(OC)c4)C3)c(C)o2)cc1 (stereo not given) the results were Proteasome disasm 1.1.

Continued:
Screening COc1ccc(N2CCN(C(=O)COc3ccc4ccccc4c3)CC2)cc1 returned VCAM-1 up inactive and Proteasome disasm -0.1.
NC(=O)CCCC1=NS(=O)(=O)c2ccccc2N1 was read as Proteasome disasm -2.5.
For COc1ccc(N2CCN(C(CNC(=O)c3ccc4c(c3)OCO4)c3cccnc3)CC2)cc1 (stereo not given) the results were Proteasome disasm 2.0.
For COc1cccc(C2=NOC(C(=O)NC3CCCCC3)C2)c1 (stereo not given) the results were Proteasome disasm -0.1.
Screening O=C(O)CCc1ccc(-c2ccccc2)n1CC(=O)O returned VCAM-1 up inactive and Proteasome disasm 3.1.
Screening CCCCNc1cc(C)oc(=O)c1C(C)=O returned VCAM-1 up inactive and Proteasome disasm -0.8.
`Cc1c(NS(=O)(=O)c2ccc3c(c2)CCN3C(=O)C2CC2)c(=O)n(-c2ccccc2)n1C` gave Proteasome disasm -1.1.
For O=S(=O)(NCCOCC(F)(F)C(F)F)c1ccc2oc3ccccc3c2c1 the results were Proteasome disasm -0.3.
`O=C1NC(Cc2c[nH]c3ccccc23)C(=O)N1CCOc1ccccc1` (stereo not given) gave VCAM-1 up inactive and Proteasome disasm -1.1.
For COc1ccc(C)cc1S(=O)(=O)Nc1cccnc1 the results were VCAM-1 up inactive and Proteasome disasm -0.4.
For O=c1cc(N2CCN(c3ccccc3)CC2)[nH]c(=O)n1C1CCCCC1 the results were Proteasome disasm 17.9.
For Cc1cccc(NC(=O)CN2C(=O)COc3ccc(Cl)cc32)c1C the results were Proteasome disasm -0.1.
`O=C(NCCN1CCCC1)c1ccc2c(c1)N(Cc1ccc(F)cc1)C(=O)c1ccccc1S2=O` (stereo not given) gave Proteasome disasm 15.9.
COc1ccc2nc(NC(=O)C3CCCN(S(=O)(=O)c4cccc5nonc45)C3)sc2c1 (stereo not given) was read as Proteasome disasm 31.7.
`O=C(c1ccc(CS(=O)(=O)c2ccc(Br)cc2)o1)N1CCN(C2CCCCC2)CC1` gave Proteasome disasm -3.7.
For O=C(O)c1cc(-c2ccccc2Cl)n[nH]1 the results were VCAM-1 up inactive and Proteasome disasm -0.6.
`Cc1nc2scc(-c3ccco3)c2c(=O)n1/N=C/N(C)C` gave VCAM-1 up inactive and Proteasome disasm -0.7.
Screening NC(N)=NC(N)=NCCc1ccccc1 returned VCAM-1 up inactive and Proteasome disasm 1.0.
Screening Cc1cccn2c(=O)c3cc(C(=O)N4c5ccccc5CC4C)n(C)c3nc12 (stereo not given) returned Proteasome disasm 4.4.
`CCN1CCN(C(=O)c2sc3nc(C)nc(N4CCC(C)CC4)c3c2C)CC1` gave Proteasome disasm 0.1.
Cc1noc(/C=C/c2ccco2)c1S(=O)(=O)N1CCC(C(=O)N2c3ccccc3CC2C)CC1 (stereo not given) was read as Proteasome disasm 105.2*.
For CCc1nnc(NC(=O)CSc2nc3ccccc3s2)s1 the results were VCAM-1 up inactive and Proteasome disasm 1.7.
COc1ccc(N2CCN(C(=O)CSc3ccccc3)CC2)cc1 was read as VCAM-1 up inactive and Proteasome disasm 0.7.
C=CCn1c(Cc2cccs2)nnc1SCC(=O)Nc1ccc(OC)c(OC)c1 was read as VCAM-1 up inactive and Proteasome disasm -3.4.
`CN(CCCNC(=O)C1CCN(S(=O)(=O)c2cccc3nsnc23)CC1)Cc1ccccc1` gave Proteasome disasm -0.9.
O=C(NCc1ccc2c(c1)OCO2)c1ccc(NC(=O)C2CCCO2)cc1 (stereo not given) was read as Proteasome disasm -1.0.
Screening COc1ccc(-n2c(Cc3cccn3C)nnc2SCC(=O)Nc2cccc(F)c2)cc1 returned Proteasome disasm 0.4.
N#Cc1cccc(NC(=O)NCCc2c[nH]c3ccccc23)c1 was read as Proteasome disasm -0.5.
`Brc1ccc(-c2noc(COc3ccc4c(c3)CCC4)n2)o1` gave Proteasome disasm -0.9.
`COc1ccc(Cl)cc1C(=O)NCCc1ccc(S(=O)(=O)NC(=O)NC2CCCCC2)cc1` gave VCAM-1 up inactive and Proteasome disasm -0.5.
Cc1ccc(S(=O)(=O)N2CCCC2C(=O)n2nc(C)cc2C)cc1 (stereo not given) was read as VCAM-1 up inactive and Proteasome disasm -0.7.
For O=C(CCN1C(=O)COc2ccccc21)NCc1ccco1 the results were Proteasome disasm 0.6.
Screening Cc1c(NC(=O)C(C)N2C(=O)C3C4C=CC(C4)C3C2=O)c(=O)n(-c2ccccc2)n1C (stereo not given) returned Proteasome disasm 0.2.
